Screens deposited in PubChem by several laboratories.
S1P2 ag: S1P2 (human) receptor agonism | S1P2-expressing cell line, agonist reporter read-out | activation, % at 4.5 µM | 97,000 compounds, 0.46% hits | AID 729; in the data active means activation above about 16%;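 further: 0% = vehicle low control and 100% = maximal reference agonist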
PostGolgi ctrl: yeast control strain growth, post-Golgi counter-screen | efflux-deficient yeast background strain, growth absorbance A615, 16 h | inhibition, % at 10 µM | 98,000 compounds, 5% hits
DAT uptake mod: modulates human dopamine transporter uptake under cocaine; Q01959; AID 449768; LLC-PK1 hDAT cells, [14C]-dopamine uptake with cocaine IC80; actives deviate in either direction; 110,000 compounds, 1.3% hits; B-score at 10 µM;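 active means Z score or B-score, a plate-position-corrected score, falls beyond the plate's 99.7% confidence bounds, in either direction; inactive means both scores lie inside the 99.7% bounds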;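 further: scored against the spread of the other compound wells on the same plate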
Target sequence (Q01959 whole entry, looked up): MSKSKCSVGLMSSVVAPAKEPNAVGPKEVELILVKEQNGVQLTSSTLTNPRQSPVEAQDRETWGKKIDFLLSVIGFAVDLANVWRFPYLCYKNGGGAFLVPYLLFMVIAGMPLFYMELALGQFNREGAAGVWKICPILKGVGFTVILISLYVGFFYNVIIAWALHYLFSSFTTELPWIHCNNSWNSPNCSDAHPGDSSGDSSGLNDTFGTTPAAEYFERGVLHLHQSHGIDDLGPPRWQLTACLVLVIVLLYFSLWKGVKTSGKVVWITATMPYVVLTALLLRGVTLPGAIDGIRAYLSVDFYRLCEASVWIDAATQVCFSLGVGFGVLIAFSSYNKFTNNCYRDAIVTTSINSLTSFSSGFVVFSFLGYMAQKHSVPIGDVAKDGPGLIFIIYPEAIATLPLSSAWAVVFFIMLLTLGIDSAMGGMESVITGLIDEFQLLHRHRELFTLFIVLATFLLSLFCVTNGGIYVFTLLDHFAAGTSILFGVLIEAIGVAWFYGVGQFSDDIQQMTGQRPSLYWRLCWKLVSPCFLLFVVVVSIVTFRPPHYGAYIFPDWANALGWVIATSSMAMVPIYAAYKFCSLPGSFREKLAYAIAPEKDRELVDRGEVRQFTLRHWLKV
S1P2 blocker: S1P2 (human) receptor antagonism. O95136. cell-based S1P2 antagonist assay, inhibition at 5 uM. inhibition, % at 5 µM. 97,000 compounds, 0.21% hits. AID 736; in the data active means inhibition above about 45%;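 further: CRE beta-lactamase reporter cells expressing human S1P2 stimulated with S1P; 0% = agonist at EC80 alone and 100% = agonist plus reference antagonist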
CYP2C19 inhib: inhibitors of human CYP2C19; CYP2C19 Supersomes, luciferin-H EGE luminescence, 30 min; inhibition, % at 5 µM; 96,000 compounds, 21% hits; AID 778;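 active means CYP2C19 inhibition above a set limit at 5 µM in the primary screen, cut at about 50% in these data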;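 further: plate controls were negative control wells for no effect and 2.5 mM tranylcypromine positive control for full effect; values of inactives mirror those of a sister screen read the other way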
PostGolgi yeast: growth inhibition of a yeast mutant, post-Golgi transport screen | post-Golgi transport phenotypic cell assay | inhibition, % at 10 µM | 98,000 compounds, 0.9% hits | AID 739;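 further: yeast cells grown in 1536-well plates; yeast grown about 18 h at 30C before absorbance read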
CYP2C19 activ: activators of human cytochrome P450 2C19 | P33261 | 96,000 tested, under 10 active | recombinant CYP2C19, luciferin-H EGE luminescence; stronger effect = higher value; 0 = fully inhibited enzyme, 1 = untreated enzyme | activation factor at 5 µM;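 active means activation factor of at least 2 at 5 µM in the primary screen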;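 further: 0 = wells with 2.5 mM tranylcypromine and 1 = vehicle-only wells; values of inactives mirror those of a sister screen read the other way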
* = called active by the depositor; . = no result given. Unless noted, no stated cut-off is given here; in the data, active means inhibition above about 30%; inactive means the rest.

No. | Molecule | S1P2 ag | PostGolgi ctrl | DAT uptake mod | S1P2 blocker
1 | COCCCN1C(=O)c2[nH]nc(-c3ccccc3O)c2C1c1cccc(Cl)c1 (centres undefined) | -1 | 5 | 1.7 | -25
2 | CC(NC(=O)C1CCCN(S(=O)(=O)c2cnc[nH]2)C1)c1ccccc1 (centres undefined) | -2 | 0 | -0.13 | -7
3 | O=C(Nc1nc(-c2ccccc2)cs1)C1CCCCN1S(=O)(=O)c1ccccc1 (centres undefined) | -6 | 35* | -0.74 | -3
4 | CC(C)=CCCC(C)CN1CCC(O)CC1 (centres undefined) | -8 | 5 | -0.49 | -17
5 | COCC(=O)Nc1sc2c(c1C(=O)OC)CCC(C)C2 (centres undefined) | -4 | 26 | 1.4 | -4
6 | Cc1ccc(CCN2CC(C(=O)NCCCN(C)Cc3ccccc3)CC2=O)cc1 (centres undefined) | -3 | 6 | -0.84 | 16
7 | O=C(CCCSc1nc(-c2ccco2)cc(C(F)(F)F)n1)Nc1ccc2c(c1)OCO2 | -6 | 10 | -1 | 2
8 | O=C(CN(Cc1ccc(F)cc1)C(=O)c1ccco1)NCc1ccc(F)cc1 | -7 | 6 | 0.38 | -18
9 | Fc1ccc(-c2cc3nc(-c4ccccc4)cc(N4CCOCC4)n3n2)cc1 | -3 | 0 | -0.67 | -29
10 | Cc1c(OCc2nn[nH]n2)ccc2c3c(c(=O)oc12)CCC(C)C3 (centres undefined) | -4 | 5 | -0.011 | -18
11 | O=C(O)c1cccc(S(=O)(=O)NCC2CCCO2)c1 (centres undefined) | -3 | 26 | 0.58 | 5
12 | Cc1cccc(C(=O)Nc2sc3c(c2C#N)CCCCC3)c1 | -4 | . | -1.8 | -25
13 | COc1ccc(-c2cc(OC(=O)c3ccc(F)cc3)c3c(C)oc(C)c3c(=O)c2)cc1 | -3 | 2 | -0.052 | 6
14 | CCC(=O)N(CCC(c1ccccc1)c1ccco1)Cc1cccs1 (centres undefined) | -6 | 48* | -0.24 | 2
15 | COc1ccccc1NC(=O)C1CCCN(S(=O)(=O)c2cnc[nH]2)C1 (centres undefined) | -1 | 10 | -0.076 | 9

No. | CYP2C19 inhib | PostGolgi yeast | CYP2C19 activ
1 | 40 | -3 | 0.6
2 | 70* | -5 | 0.3
3 | 72* | -7 | 0.3
4 | -21 | 2 | 1.2
5 | 7 | 14 | 0.9
6 | 3 | 4 | 1
7 | 48 | -1 | 0.5
8 | 83* | 12 | 0.2
9 | -7 | 3 | 1.1
10 | 85* | -1 | 0.2
11 | -16 | -6 | 1.2
12 | . | . | .
13 | 0 | -1 | 1
14 | 36 | -16 | 0.6
15 | 62* | -20 | 0.4

In the list so far, two have an aryl methoxy group:
No. | Molecule | S1P2 ag | PostGolgi ctrl | DAT uptake mod | S1P2 blocker
13 | COc1ccc(-c2cc(OC(=O)c3ccc(F)cc3)c3c(C)oc(C)c3c(=O)c2)cc1 | -3 | 2 | -0.052 | 6
15 | COc1ccccc1NC(=O)C1CCCN(S(=O)(=O)c2cnc[nH]2)C1 (centres undefined) | -1 | 10 | -0.076 | 9

No. | CYP2C19 inhib | PostGolgi yeast | CYP2C19 activ
13 | 0 | -1 | 1
15 | 62* | -20 | 0.4

A few values from above.
no. 6 – DAT uptake mod: -0.84
no. 12 – DAT uptake mod: -1.8

The main list resumes with the 6 entries that preceded the break.
No. | Molecule | S1P2 ag | PostGolgi ctrl | DAT uptake mod | S1P2 blocker
10 | Cc1c(OCc2nn[nH]n2)ccc2c3c(c(=O)oc12)CCC(C)C3 (centres undefined) | -4 | 5 | -0.011 | -18
11 | O=C(O)c1cccc(S(=O)(=O)NCC2CCCO2)c1 (centres undefined) | -3 | 26 | 0.58 | 5
12 | Cc1cccc(C(=O)Nc2sc3c(c2C#N)CCCCC3)c1 | -4 | . | -1.8 | -25
13 | COc1ccc(-c2cc(OC(=O)c3ccc(F)cc3)c3c(C)oc(C)c3c(=O)c2)cc1 | -3 | 2 | -0.052 | 6
14 | CCC(=O)N(CCC(c1ccccc1)c1ccco1)Cc1cccs1 (centres undefined) | -6 | 48* | -0.24 | 2
15 | COc1ccccc1NC(=O)C1CCCN(S(=O)(=O)c2cnc[nH]2)C1 (centres undefined) | -1 | 10 | -0.076 | 9
16 | O=C(Cc1ccccc1)N1CCN(C(=O)c2cccs2)CC1 | -5 | 7 | 0.17 | 18
17 | N#CC(c1ccccc1F)(c1ncc(C(F)(F)F)cc1Cl)N1CCOCC1 (centres undefined) | -4 | 4 | 0.42 | -2
18 | Cc1cc(NC(=O)C2CCCN(S(=O)(=O)c3cnc[nH]3)C2)ccc1Br (centres undefined) | -1 | 4 | 0.43 | 5
19 | Cc1ccc(CNCc2cc3c(C(C)(C)C)nn(-c4ccccc4)c3[nH]c2=O)cc1 | -3 | 13 | 1.7 | -11
20 | CCC(=O)Nc1nc2ccccc2n1CCN(CC)CC | 0 | 4 | 0.21 | 11
21 | COc1ccccc1C(=O)Nc1ccc(S(=O)(=O)Nc2cc(C)on2)cc1 | -8 | -6 | 1.5 | -10
22 | CCNc1ccc(C(=O)OCC)cc1NC(=O)c1cccc(S(=O)(=O)N2CCOCC2)c1 | -3 | 2 | 0.22 | -13
23 | O=C(Cn1cnc2sc(-c3ccccc3)cc2c1=O)N1CCOCC1 | -2 | -9 | -0.5 | -7
24 | CCOC(=O)c1ccc(NC(=O)C2CCCN(S(=O)(=O)c3cnc[nH]3)C2)cc1 (centres undefined) | -1 | 7 | 0.087 | -5
25 | Cc1nn2c(-c3ccccc3)ccnc2c1-c1ccccc1 | -3 | 22 | -0.19 | 1
26 | CCOC(=O)C1=C(CC)Nc2ccccc2N=C1NC(=O)Nc1ccccc1OC | -5 | 37* | 0.59 | -17
27 | COc1cc(C2/C(=C(/O)c3ccc(OCC(C)C)cc3)C(=O)C(=O)N2CCN(C)C)ccc1O (centres undefined) | -2 | -1 | -0.68 | 4
28 | Cc1cc(C(F)(F)F)nc(SCc2ccc(C(=O)O)o2)n1 | -6 | 7 | 1.6 | 17
29 | COc1cc2ccccc2cc1C(=O)Nc1ccc(S(=O)(=O)Nc2cc(C)on2)cc1 | -2 | 3 | 1.4 | 18
30 | CC(C)[C@H](NC(=O)CCn1nnc2ccccc2c1=O)C(=O)O | -7 | -6 | -0.82 | -6

No. | CYP2C19 inhib | PostGolgi yeast | CYP2C19 activ
10 | 85* | -1 | 0.2
11 | -16 | -6 | 1.2
12 | . | . | .
13 | 0 | -1 | 1
14 | 36 | -16 | 0.6
15 | 62* | -20 | 0.4
16 | 81* | 5 | 0.2
17 | 35 | -5 | 0.7
18 | 97* | -5 | 0
19 | 42 | 0 | 0.6
20 | -13 | 10 | 1.1
21 | 2 | 1 | 1
22 | 45 | 0 | 0.6
23 | -15 | 2 | 1.2
24 | 92* | 3 | 0.1
25 | 30 | -5 | 0.7
26 | 35 | 8 | 0.6
27 | 68* | -9 | 0.3
28 | 7 | 8 | 0.9
29 | -10 | 2 | 1.1
30 | -2 | -2 | 1

New compounds follow
No. | Molecule | S1P2 ag | PostGolgi ctrl | DAT uptake mod | S1P2 blocker
31 | CCCCCSc1nc(O)cc(=O)[nH]1 | -6 | -3 | 0.32 | 5
32 | CCN(CC)S(=O)(=O)N1CCC(C(=O)NC(C)CCc2ccccc2)CC1 (centres undefined) | -2 | 7 | 0.89 | 19
33 | COc1ccc(NC(=O)CCN2CCCCCC2)c(OC)c1 | -2 | 0 | 0.51 | 13
34 | NC1=NC2(CCN(Cc3ccccc3)CC2)n2c(nc3ccccc32)N1 | -5 | -2 | 2.1 | 15
35 | Cc1cc(C)c(S(=O)(=O)NCC2CCC(C(=O)NCc3ccc4c(c3)OCO4)CC2)c(C)c1 (centres undefined) | -5 | 15 | -0.81 | 7
36 | COc1ccc(CNc2nc3nc4c(c(=O)n3[nH]2)CCC4)cc1 | -1 | 10 | -0.93 | 13
37 | C=CCNC(=O)N[C@@H](CCSC)C(=O)OC | -5 | 5 | -0.87 | 18
38 | CN1CCN(c2nc3c(c(=O)n(C)c(=O)n3C)n2CC(N)=O)CC1 | -7 | 7 | 0.68 | 24
39 | O=C(O)CCCCCNC(=O)CCn1nnc2ccccc2c1=O | -5 | 6 | -0.017 | 6

No. | CYP2C19 inhib | PostGolgi yeast | CYP2C19 activ
31 | 4 | 2 | 1
32 | -8 | 1 | 1.1
33 | 42 | -7 | 0.6
34 | 26 | 5 | 0.7
35 | . | 8 | .
36 | -1 | 14 | 1
37 | 5 | -7 | 0.9
38 | 1 | -1 | 1
39 | -6 | 8 | 1.1

Profiles, quoted from the list:
Profile of O=C(O)CCCCCNC(=O)CCn1nnc2ccccc2c1=O → S1P2 ag = -5; PostGolgi ctrl = 6; DAT uptake mod = -0.017; S1P2 blocker = 6; CYP2C19 inhib = -6; PostGolgi yeast = 8; CYP2C19 activ = 1.1
Profile of COc1ccc(NC(=O)CCN2CCCCCC2)c(OC)c1 → S1P2 ag = -2; PostGolgi ctrl = 0; DAT uptake mod = 0.51; S1P2 blocker = 13; CYP2C19 inhib = 42; PostGolgi yeast = -7; CYP2C19 activ = 0.6

This is a subset (hit frequency here may not be typical).
